# Screens: PubChem, Broad Institute
# AF4-AF9 inh = inhibitors of human MLL-AF4/AF9 interaction. P42568. AlphaScreen, biotin-AF4 peptide binding to FLAG-AF9. inhibition, % at 10 µM. actives 0.47% (n = 350,000);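 active = every replicate reaching a set inhibition limit, whatever the replicate mean, cut at about 25% in these data; inconclusive = mean inhibition reaches that limit but some replicates miss it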;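 note: 0% = plate neutral control median and 100% = total signal loss; the record names both 10 and 1 µM as test concentration; the first replicate is given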
# Target sequence (P42568 whole entry, looked up): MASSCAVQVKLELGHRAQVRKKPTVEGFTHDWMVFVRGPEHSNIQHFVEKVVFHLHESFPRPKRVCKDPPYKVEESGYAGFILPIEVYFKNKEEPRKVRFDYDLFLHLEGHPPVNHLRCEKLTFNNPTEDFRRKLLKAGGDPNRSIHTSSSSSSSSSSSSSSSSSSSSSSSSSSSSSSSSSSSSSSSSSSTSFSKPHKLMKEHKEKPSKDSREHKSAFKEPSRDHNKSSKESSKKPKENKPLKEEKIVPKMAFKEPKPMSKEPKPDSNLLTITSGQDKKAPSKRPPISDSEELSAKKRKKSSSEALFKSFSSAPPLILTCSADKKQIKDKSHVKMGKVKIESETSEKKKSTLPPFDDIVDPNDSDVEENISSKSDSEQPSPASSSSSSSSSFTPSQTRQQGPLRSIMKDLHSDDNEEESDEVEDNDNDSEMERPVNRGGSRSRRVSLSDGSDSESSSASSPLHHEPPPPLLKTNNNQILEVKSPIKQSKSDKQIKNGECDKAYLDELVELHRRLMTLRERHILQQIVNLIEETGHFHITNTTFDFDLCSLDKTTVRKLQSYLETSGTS
# Calb FLC = affects C. albicans growth with fluconazole. C. albicans CaCi-2 (fluconazole-resistant clinical isolate) + fluconazole, Alamar Blue growth, 48 h. growth inhibition, % (test concentration not listed). actives 0.57% (n = 300,000);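 active = most replicates above 75%; inconclusive = exactly half above 75%; inactive = most below 75%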;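 note: all wells also contain fluconazole at 8 µg/ml as a sub-toxic cotreatment; 0% = median of DMSO wells and 100% = median of geldanamycin control wells; wells of about 8 µL received 7.5 nL stock; the first replicate is given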
# ALR H2O2 inh = inhibitors of human sulfhydryl oxidase ALR. actives 3.8% (n = 290,000). purified ALR, DTT oxidation, H2O2 HRP-luminol luminescence. P55789. inhibition, % (concentration not given with the values);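 active = mean and each replicate at 75% or more; inconclusive = only one of the two met; inactive = neither met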;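 note: stock transfer was 7.5 nL into about 7.5 µL; 0% = neutral wells and 100% = wells with inactivated enzyme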
# Target sequence (P55789 whole entry, looked up): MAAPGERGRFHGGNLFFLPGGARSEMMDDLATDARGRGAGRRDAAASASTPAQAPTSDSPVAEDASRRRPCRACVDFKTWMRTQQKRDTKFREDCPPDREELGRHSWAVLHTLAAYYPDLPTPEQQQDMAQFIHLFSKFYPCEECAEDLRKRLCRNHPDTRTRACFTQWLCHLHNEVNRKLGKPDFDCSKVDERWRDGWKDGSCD
# Beta apoptosis = blocks beta cell apoptosis; INS-1E cytokine-induced death, ATP luminescence, 48 h; percent of positive-control rescue, neutral wells zero; protection from apoptosis, % (test concentration not listed); actives 0.8% (n = 300,000); AID 435005;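 active = all replicates at 75% or more, or half of them and the mean; inconclusive = half reach 75% but not the mean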;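 note: 0% = cytokine-treated negative control wells and 100% = positive control rescue; higher means more ATP so stronger rescue from cytokine killing; wells of about 40 µL received 100 nL stock; the first replicate is given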
# rRNA inh HTS = selective bacterial rRNA inhibition in E. coli; actives 1.6% (n = 350,000); GFP signal change (wild-type ribosome), % (concentration not given with the values); E. coli WT GFP vs humanized-ribosome RFP mutants, fluorescence, 24 h; stronger effect = lower value; DMSO median 0, no signal -100;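 active = significant combined selectivity score with lowered wild-type GFP, culture density cut under 30%, mutant RFP and density less affected; inactive = any of these conditions unmet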; note: one replicate is shown; some compounds called inactive have numbers as strong as hits
# RanGTP-Impb inh = inhibitors of RanGTP-importin-beta interaction, primary screen, biochemical, FRET, CFP-Ran, YFP-importin-beta, homogeneous; cell-free CFP-Ran/YFP-importin-beta FRET ratio; inhibition, % (no concentration beside the values); actives 1.1% (n = 300,000); AID 2216;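 active = most replicates above 15%; inconclusive = exactly half above 15%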;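 note: 0% = DMSO wells and 100% = Ran loaded with GDP instead of GTP; wells of about 40 µL received 100 nL stock; the first replicate is given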
# T cruzi inh = T. cruzi replication inhibition; T. cruzi beta-gal in NIH3T3, luminescence, 90 h; inhibition, % (test concentration not listed); actives 1.4% (n = 300,000);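 active = mean inhibition across valid replicates above about 55%, limit read from the data; inconclusive = mean below that limit but half or more replicates reach it; inactive = mean below it, under half of replicates reach it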;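 note: signal also drops with host cell toxicity which is not excluded here; 0% = plate median of DMSO wells and 100% = zero luminescence signal; higher percent means less beta-gal luminescence so fewer parasites; stock transfer was 50 nL into about 50 µL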
# FGF22 binding = FGF22 (human) thermal shift binding. Q9HCT0. recombinant FGF22 thermal shift, SYPRO orange fluorescence; percent of sucrose octasulfate shift, DMSO zero. calls only at 9.99 µM. actives 1.5% (n = 340,000). AID 651658;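 active = melting point raised past a set limit in the mean and every replicate; inconclusive = no clear call; three in four hits are not shown here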
# Target sequence (Q9HCT0 whole entry, looked up): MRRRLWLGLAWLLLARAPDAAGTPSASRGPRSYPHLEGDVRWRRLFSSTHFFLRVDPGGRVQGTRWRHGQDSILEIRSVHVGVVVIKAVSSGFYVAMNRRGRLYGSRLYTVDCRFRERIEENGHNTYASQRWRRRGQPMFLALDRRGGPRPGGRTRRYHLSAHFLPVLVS
# rRNA inh HTS OD600 = also measured in rRNA inh HTS; calls as there; OD600 change, %; measured here: OD600 growth;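 optical density of the mix in the first replicate; 0 = DMSO median and -100 = no signal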
# rRNA inh HTS RFP = recorded beside rRNA inh HTS, whose call it bears; RFP signal change, %; measured here: RFP humanized mutant strains;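 first replicate; 0 = DMSO median and -100 = no signal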
# The depositor's hits bear a star; i = inactive; ? = inconclusive; . = not tested or not shown. Only part of the results is shown (hit frequency here may not be typical).
SMILES,AF4-AF9 inh,Calb FLC,ALR H2O2 inh,Beta apoptosis,rRNA inh HTS,rRNA inh HTS OD600,rRNA inh HTS RFP,RanGTP-Impb inh,T cruzi inh,FGF22 binding
C/C(CC(=O)Nc1ccc(F)cc1)=N\NC(=O)c1ccccn1,-3.8,?,23.3,-1.8,0.9,12.7,-1.2,179.2*,-5.4,i
O=C(N/N=C/c1ccc(Cl)c([N+](=O)[O-])c1)c1cnccn1,.,-0.2,-4.5,5.0,.,.,.,-2.4,-19.5,.
CC(C)CN(C(=O)COC(=O)c1ccc2c(c1)OCCO2)c1c(N)n(Cc2ccccc2)c(=O)[nH]c1=O,-2.5,-1.6,-17.6,.,3.3,7.6,0.3,1.2,-0.9,i
S=C(NCCc1ccccc1)N1CCc2ccccc2C1,1.1,-59.2,-4.8,1.5,-21.9*,-16.9*,-1.7*,0.8,7.1,.
CCOC(=O)c1c(C)nc2c(c1-c1ccc(Cl)cc1)C(=O)CC(C)(C)C2,2.6,1.7,-1.9,3.3,-20.8,-30.4,-15.3,-1.6,10.5,i
Cc1cccc(CN2C(=O)NC(c3ccccc3)(c3ccccc3)C2=O)c1,?,-4.0,-8.5,2.0,-5.9,-37.6,-0.5,-0.2,11.6,i
Cc1nnc(SCC(=O)NCc2ccco2)n1Cc1ccccc1,.,3.6,4.0,-3.0,.,.,.,1.7,-24.1,.
COc1ccc(CNC(=O)CN(C)S(=O)(=O)c2ccc3c(c2)n(C)c(=O)c(=O)n3C)cc1,-2.4,-7.9,2.2,-3.0,3.2,6.9,0.8,-2.2,-13.6,i
C/C=C/c1ccc(OCCOCCOc2cccc3cccnc23)c(OC)c1,4.3,2.4,.,-4.4,-52.8,-75.8,-23.1,4.1,-0.1,i
COc1ccc(-n2c(COc3cccc(C)c3)n[nH]c2=S)cc1,-5.8,-0.5,37.4,-3.8,-20.3*,-6.7*,-0.4*,-2.4,-0.7,i
CC(C)COC(=O)c1ccccc1OC(=O)c1ccncc1,-2.0,-6.0,1.1,-11.6,3.2,-1.8,-1.7,-2.1,-26.0,i
COc1ccc(Cc2nnnn2CC(=O)O)cc1,.,-1.5,-3.8,-2.2,.,.,.,-18.5,-9.6,.
Cc1nc(NC(=O)C2CC2)sc1C,5.0,-4.0,5.1,-2.4,0.4,6.2,-4.4,0.7,-1.2,i
Cc1ccc(C2=NN(C(=O)CN3CCN(C4CCS(=O)(=O)C4)CC3)C(c3ccco3)C2)cc1 (centres undefined),4.5,.,-6.1,-1.2,17.7,10.4,4.0,.,.,i
O=C(CCc1ccccc1)NCc1ccncc1,-2.4,25.4,16.8,-4.8,9.8,18.6,2.2,8.1,-12.8,i
Cc1ccc(C(=O)CCC(=O)N2CCN(c3ccc(F)cc3)CC2)cc1,2.3,6.2,-11.4,-5.5,1.6,-1.6,5.2,-2.6,-6.9,i
COc1ccc(-c2n[nH]c(=S)n2-c2ccccc2C)cc1,-4.2,13.3,.,1.0,-3.7,-1.0,2.2,0.3,-7.1,i
CSc1ccc(CN(C)C(C)C(=O)NCc2ccccc2)cc1 (centres undefined),0.8,-10.2,-6.7,-1.7,-35.5,-37.1,-7.7,2.1,21.0,i
CCN(CC)S(=O)(=O)c1cccc(-c2csc(C)n2)c1,1.4,18.6,97.3*,-2.7,-1.3,1.9,2.2,2.8,4.6,i
O=C(O)c1ccc(N2C(=O)c3ccc(C(=O)c4cccc([N+](=O)[O-])c4)cc3C2=O)cc1,-3.2,?,4.0,-10.9,0.4,2.9,-1.1,-1.8,-5.0,i
O=C(NCc1cccc(CNC(=O)C(=O)NCC2CCCO2)c1)C(=O)NCC1CCCO1 (centres undefined),-0.8,-3.0,5.2,3.7,7.6,7.2,-0.1,7.2,-12.4,i
NC(=O)Nc1cc(Cl)ccc1Cl,.,1.2,-2.2,-0.4,5.5,5.3,-1.1,-2.6,-13.3,i
CCOC(=O)[C@H]1[C@H]2COc3ccc(OC)cc3[C@@H]2N2C(=O)c3ccccc3NC(=O)[C@@]12C,0.7,.,.,-4.5,3.9,3.0,-1.3,.,.,i
O=C(Oc1ccc(Br)cc1)c1cccc(S(=O)(=O)N2CCOCC2)c1,2.3,-0.6,0.1,-3.0,-10.1,-18.0,-3.2,?,-14.2,i
O=Cc1cc(Br)c(OC(=O)N2CCOCC2)c(Br)c1,4.1,4.1,-11.7,-11.2,2.4,3.3,1.5,4.2,-20.0,i
O=C1c2ccccc2C(=O)C1c1ccccc1F,-2.8,-0.7,0.3,-7.5,1.8,2.3,1.2,1.7,1.0,i
c1ccc(N2N=C(c3cccs3)CC2c2ccco2)cc1 (centres undefined),.,11.9,97.5*,2.7,.,.,.,0.6,13.4,.
C/C(CCC(C)C)=N\NS(=O)(=O)c1ccc(C)c([N+](=O)[O-])c1,-2.3,4.7,1.2,-1.5,9.2,-4.3,-5.6,0.2,10.9,i
O=C(c1cc(F)c(F)cc1Cl)N1CCOCC1,.,21.7,-5.2,-7.2,.,.,.,2.4,-2.0,.
CNC(=O)NC(=O)CSc1cccc(C(F)(F)F)c1,-1.4,-7.0,-0.6,-4.2,7.8,10.8,3.1,0.0,11.8,i
O=C(Cn1c(=O)oc2ccc(Cl)cc21)Nc1ccon1,-3.5,-1.0,-5.9,-4.1,4.7,3.9,-1.3,-0.9,2.0,i
Cc1nc2ccccc2c2oc(C(=O)N3CCC(C)CC3)cc12,0.1,3.0,-1.7,3.9,-20.5,-27.6,-4.8,3.4,4.4,i
N#Cc1c(N)nc(SCC(=O)NCc2ccc3c(c2)OCO3)c(C#N)c1-c1cccs1,.,-10.5,-4.4,4.8,.,.,.,-2.9,-5.5,.
O=C(Nc1ccccc1N1CCN(c2ccccc2)CC1)c1ccccc1,4.5,-16.8,9.1,-0.3,11.3,-1.7,-0.6,3.3,34.5,i
Cc1ccc(C)c(N2CCN(C(=O)c3cn(C)c4ccc(S(=O)(=O)N(C)C)cc4c3=O)CC2)c1,-0.4,4.6,.,-2.9,7.8,-6.5,12.9,-1.7,0.9,i
O=C(NC1CCCC1)c1ccc(Cl)c(S(=O)(=O)N2CCOCC2)c1,-2.7,-2.9,-5.9,-0.8,-1.4,4.3,-0.2,-2.0,1.7,i
Cc1cc(C)nc(/N=C2\NC(=O)CC(C(=O)O)N2c2ccc(C)c(C)c2)n1 (centres undefined),1.8,-0.5,0.1,1.4,0.1,-5.2,0.8,3.6,7.1,i
CCN1CC(=O)Nc2cc(S(=O)(=O)N3CCOCC3)ccc21,1.7,-0.2,0.7,-2.1,10.0,-5.3,1.6,1.3,7.6,i
O=C(CCN1Cc2ccccc2C1)c1ccc2c(c1)OCCO2,.,-7.3,18.5,-20.6,.,.,.,4.0,37.5,.
CC(NC(=O)Cc1ccc(F)cc1)c1ccccc1 (centres undefined),.,-1.8,-18.4,-1.0,.,.,.,2.0,3.8,.
Nc1sc2c(c1C(=O)NCCc1ccccc1)CCC2,-0.2,9.1,0.9,0.8,9.2,5.8,6.0,-0.5,-16.3,i
COc1cc(NC(=O)CSc2ccc(-c3ccccn3)nn2)cc(OC)c1,2.3,-4.3,-3.4,30.0,5.0,-2.1,-0.8,?,26.4,i
COc1ccc(CNc2nc3ccccc3n2C(C)C)cc1,-0.1,4.3,6.7,-5.6,14.7,12.8,1.3,-1.5,3.4,i
COc1ccc(-c2nnc(SCC(=O)NC3CCCc4ccccc43)n2N)cc1 (centres undefined),2.3,-8.7,-2.2,-2.6,-5.5,-0.4,-1.6,2.7,6.9,i
Cn1cc(S(=O)(=O)NCC2CCCO2)c(=O)n(C)c1=O (centres undefined),6.5,0.0,.,0.8,-1.8,2.9,0.9,-3.9,8.6,i
COc1ccc(CNC(=O)CCSCc2cccc(Cl)c2)cc1,.,-0.3,-3.5,-0.7,.,.,.,1.9,-1.5,.
O=C(NCc1nc2ccccc2[nH]1)c1ccc(S(=O)(=O)N2CCCC2)cc1,-1.0,-5.7,-17.5,0.5,-28.6*,-9.4*,-0.6*,?,14.5,i
CCC1CCCCN1C/C=C/c1ccccc1[N+](=O)[O-] (centres undefined),3.6,30.0,-3.3,-0.8,15.6,13.5,-6.3,-6.7,-0.2,i
O=C(CNCc1ccncc1)Nc1cc(S(=O)(=O)N2CCCCC2)ccc1Cl,3.6,?,.,0.4,2.6,-3.4,-7.2,3.7,11.3,i
CCOC(=O)c1c(NC(C)=O)sc2c(OCC(O)CNC(C)(C)C)c(Br)ccc12 (centres undefined),.,-3.3,-58.3,12.2,.,.,.,-1.2,40.1,.
CCCCNc1nc(NC)nc(Cl)c1SC,-0.8,-0.5,-4.2,1.6,6.8,7.1,0.2,.,4.5,i
CCCCn1c(N)c(N(Cc2ccccc2OC)C(=O)COc2ccccc2OC)c(=O)[nH]c1=O,-23.3,1.0,.,1.3,2.9,6.8,-0.9,-3.0,-3.3,i
CSCCC(NS(=O)(=O)c1ccc(C)cc1)C(=O)N1CC=C(c2ccccc2)CC1 (centres undefined),-1.3,1.7,-2.6,-6.4,-1.7,10.0,-1.6,-2.8,18.1,.
O=[N+]([O-])c1ccc(/C=C/c2ccc3ccccc3n2)cc1,10.2,12.7,2.8,9.6,-35.9,-31.2,12.6,-0.3,20.8,i
O=C(NCCc1ccccc1)C1CCC(Cn2c(=O)c3ccccc3n(Cc3cccc(F)c3)c2=O)CC1 (centres undefined),.,3.7,-2.6,4.1,.,.,.,3.7,-7.6,.
O=C(CCCN1C(=O)/C(=C/c2cccs2)SC1=S)Nc1cccc(O)c1,6.4,1.9,.,-2.7,-13.6,-21.3,3.5,1.3,12.5,i
O=C(Nc1ccccc1)N1N=C(c2ccc(F)cc2)CC1c1ccc(F)cc1 (centres undefined),0.3,-5.5,0.6,13.7,4.6,5.7,3.1,0.0,23.8,i
CCCn1c(SCC(=O)c2ccc3c(c2)NC(=O)CO3)nc2ccccc21,-0.5,5.4,98.8*,5.1,3.2,1.1,0.3,3.8,-2.7,i
COCCn1c(C)cc(C(=O)CSc2nnnn2C2CCCC2)c1C,-0.5,.,7.7,0.3,-8.4,-10.9,1.5,.,.,i
CS(=O)(=O)c1ccc(Cl)c(C(=O)NC2CCSc3ccccc32)c1 (centres undefined),-1.1,-1.5,-5.9,1.2,19.1,5.2,3.1,?,0.0,i

# (cont.)
SMILES,AF4-AF9 inh,Calb FLC,ALR H2O2 inh,Beta apoptosis,rRNA inh HTS,rRNA inh HTS OD600,rRNA inh HTS RFP,RanGTP-Impb inh,T cruzi inh,FGF22 binding
Cc1ccc(NC(=O)c2cc(S(=O)(=O)N3CCOCC3)cs2)cc1,-0.9,-4.5,-2.8,4.9,-6.2,-2.7,1.4,0.3,-4.5,i
CCNS(=O)(=O)c1ccc(C)c(-n2cnnn2)c1C,.,-1.4,7.4,-2.7,.,.,.,-1.2,10.9,.
CC(=O)Nc1ccc(/C=C2/Sc3ccccc3C2=O)cc1,.,13.9,-2.2,-4.8,.,.,.,8.4,1.5,.
COc1ccc(C2(O)CC3CCC(C2)N3c2nc(C)cc(C)c2C#N)cc1 (centres undefined),.,17.7,-0.9,-8.1,.,.,.,5.2,12.3,.
CCOc1ccc(CNS(=O)(=O)c2c(C)nc3scc(C)n3c2=O)cc1OC,1.8,-5.8,-5.6,1.5,7.4,9.3,0.6,-1.2,0.4,i
